Screening results: PubChem BioAssay, several laboratories
MLL AF4-AF9 inh – MLL-AF4/AF9 protein interaction inhibition; P42568; AlphaScreen, biotin-AF4 peptide binding to FLAG-AF9; inhibition, % at 10 µM; hit rate 0.47% among 350,000; AID 651704;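 active = every replicate reaching a set inhibition limit, whatever the replicate mean, cut at about 25% in these data; inconclusive = mean inhibition reaches that limit but some replicates miss it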;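 note: 0% = plate neutral control median and 100% = total signal loss; the record names both 10 and 1 µM as test concentration; the first replicate is given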
Target sequence (P42568 whole entry, looked up): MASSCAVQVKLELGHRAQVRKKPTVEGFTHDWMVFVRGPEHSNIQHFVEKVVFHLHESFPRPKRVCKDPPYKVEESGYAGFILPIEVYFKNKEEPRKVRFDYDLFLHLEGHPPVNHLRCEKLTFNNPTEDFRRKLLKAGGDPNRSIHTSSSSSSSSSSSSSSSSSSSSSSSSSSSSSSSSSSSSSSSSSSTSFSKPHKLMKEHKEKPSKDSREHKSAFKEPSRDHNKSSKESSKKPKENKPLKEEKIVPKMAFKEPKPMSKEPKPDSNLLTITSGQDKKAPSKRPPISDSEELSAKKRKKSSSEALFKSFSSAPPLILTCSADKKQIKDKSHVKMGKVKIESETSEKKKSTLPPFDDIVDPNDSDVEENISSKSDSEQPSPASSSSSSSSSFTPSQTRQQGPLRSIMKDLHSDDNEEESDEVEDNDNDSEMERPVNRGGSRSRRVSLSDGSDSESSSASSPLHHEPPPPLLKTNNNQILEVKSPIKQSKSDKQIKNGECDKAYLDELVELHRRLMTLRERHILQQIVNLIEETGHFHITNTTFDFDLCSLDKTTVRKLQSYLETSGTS
RanGTP-Imp inh – disruptors of Ran-importin-beta complex formation – biochemical, FRET, CFP-Ran, YFP-importin-beta, homogeneous, primary screen; cell-free CFP-Ran/YFP-importin-beta FRET ratio; inhibition, % (concentration not given with the values); hit rate 1.1% among 300,000;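 active = most replicates above 15%; inconclusive = exactly half above 15%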;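 note: 0% = DMSO wells and 100% = Ran loaded with GDP instead of GTP; wells of about 40 µL received 100 nL stock; the first replicate is given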
HNF4A DNA FP – change in binding of human HNF4 alpha to DNA; P41235; activity change, % at 10 µM; hit rate 0.3% among 360,000; HNF4a-FITC DNA binding, fluorescence polarization, 1 h; AID 1224865; in the data active = activity change above about 30%, passing the limit was not always enough;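 note: controls were the assay level and a saturating level of protein; the project sought stronger binding though the title names inhibitors; some compounds called inactive have numbers as strong as hits; positive values seem to mean higher polarization but the record does not say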
UCH37 DUB inh – inhibitors of human deubiquitinating enzyme UCH37 | inhibition, % (no concentration beside the values) | purified proteasome/UCH37, Ub-AMC cleavage fluorescence | hit rate 0.33% among 330,000;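 active = mean of two replicates above 20%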;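 note: 0% = compound-free wells with enzyme and 100% = wells lacking proteasome; stock transfer was 100 nL into about 20 µL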
Target sequence (Q9Y5K5 whole entry, looked up): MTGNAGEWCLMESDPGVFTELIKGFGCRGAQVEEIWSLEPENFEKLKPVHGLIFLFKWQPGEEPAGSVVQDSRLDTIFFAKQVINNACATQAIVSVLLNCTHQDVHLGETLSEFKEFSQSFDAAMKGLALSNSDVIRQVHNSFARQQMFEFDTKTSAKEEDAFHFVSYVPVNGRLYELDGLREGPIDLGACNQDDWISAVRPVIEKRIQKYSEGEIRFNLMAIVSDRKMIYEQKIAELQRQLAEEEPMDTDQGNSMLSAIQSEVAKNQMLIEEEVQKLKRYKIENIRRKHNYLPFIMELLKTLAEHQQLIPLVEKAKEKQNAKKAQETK
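Signal – fluorescence, ex 355 nm, em 460 nm · System – Proteasome-bound UCH37 · Input – 0.15 nM proteasome as dispensed · Timing – 30 min preincubation with enzyme, 25 min cleavage at room temperature · Read-out basis – percent inhibition of cleavage signal versus uninhibited and no-proteasome wells · Medium – Tris-HCl pH 7.4 with ATP-MgCl2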
Ecoli growth – E. coli growth inhibition. Escherichia coli growth, OD600, 23 h; hits give low values. OD600 absorbance (no concentration beside the values). hit rate 0.21% among 330,000;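 active = OD600 absorbance below the run mean of sample wells minus 3.6 SD, in any replicate, cut at about 0.56 in these data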;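 note: stock transfer was 300 nL into about 60 µL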
FGF22 binding – shifts melting point of recombinant human FGF22 | AID 651658 | Q9HCT0 | hit rate 1.5% among 340,000 | calls only at 9.99 µM | recombinant FGF22 thermal shift, SYPRO orange fluorescence; percent of sucrose octasulfate shift, DMSO zero;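 active = melting point raised past a set limit in the mean and every replicate; inconclusive = no clear call; three in four hits are not shown here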
Target sequence (Q9HCT0 whole entry, looked up): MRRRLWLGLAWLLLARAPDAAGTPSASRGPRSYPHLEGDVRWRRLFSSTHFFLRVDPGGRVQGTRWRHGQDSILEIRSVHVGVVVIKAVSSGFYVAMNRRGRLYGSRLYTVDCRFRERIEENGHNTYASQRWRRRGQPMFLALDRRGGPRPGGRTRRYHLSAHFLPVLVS
Vif A3G – inhibitors of Vif binding to APOBEC3G peptide, primary screen, biochemical, TR-FRET, GST-Vif 1-94, biotin-A3G peptide, dose response retest (AID 1117319). TR-FRET GST-Vif / biotin-A3G peptide binding; higher % means a stronger effect; test concentration not given here; strong numbers were not always called active. one-dose inhibition, %; IC50 in µM for titrated hits. hit rate 0.57% among 260,000;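 active = above the screen mean plus three standard deviations and confirmed in dose response; inconclusive = results disagree or hit not tested in dose response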;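 note: Vif residues 1-94 fused to GST binding biotinylated APOBEC3G peptide 110-148; 0% = full assay without inhibitor and 100% = GST in place of GST-Vif; retest series ran down from 100 µM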
An asterisk follows results filed as active; i = inactive; ? = inconclusive; / = not tested or not shown; & = joins results of further samples. Only part of the results is shown; count on the stated rates, not on these rows.

Order of values – MLL AF4-AF9 inh	RanGTP-Imp inh	HNF4A DNA FP	UCH37 DUB inh	Ecoli growth	FGF22 binding	Vif A3G
Clc1ncn(CCOc2ccccc2)c1Cl
  1.2	3.5	4.0	1.0	0.674	i	-2.3%
Cn1cccc1CC(=O)NNC(=S)Nc1ccccc1Cl
  0.3	1.8	-2.6	0.7	0.748	i	?
Cc1ccc(S(=O)(=O)C2(C(=O)N3CCCCCC3)CC2)cc1
  /	3.6	5.9	-0.1	0.754	/	-7.9%
Oc1ccc2ccccc2c1C=NCc1ccccc1
  -5.5	-4.2	-2.0	3.4	0.703	i	-0.8%
COC(=O)CNC(=O)C12CC3(C)CC(C)(CC(C)(C3)C1)C2
  /	2.9	-8.1	5.6	0.723	/	3.2%
O=C(Nc1nnc(-c2ccc(F)cc2)o1)C1CCCN1S(=O)(=O)c1cccs1 (stereo not given)
  -0.8	5.3	6.3	8.1	0.642	i	-2.9%
Cc1cccc(N2CCN(C(=O)C3COc4ccccc4O3)CC2)c1C (stereo not given)
  -2.1	25.7*	-2.0	3.1	0.668	i	7.2%
O=C(O)c1ccc(-c2ccco2)n1Cc1ccccc1
  /	-1.4	-3.2	-0.6	0.666	/	16.4%
Cc1ccc(S(=O)(=O)c2nc(NCCCn3ccnc3)sc2Cl)cc1
  /	7.1	-2.2	2.6	0.723	/	3.0%
CN(CCc1ccccn1)C(=O)c1ccc(OC2CCN(Cc3ccccn3)CC2)cc1
  -1.5	3.0	-2.0	-2.5	0.671	i	/
COCCN(CCOC)Cc1cc(=O)oc2ccc3ccccc3c12
  2.1	/	-0.3	/	/	i	/
Cc1ccccc1Oc1nc2c(c(=O)n(C)c(=O)n2C)n1C
  0.8	-0.8	-3.7	3.3	0.648	i	-3.0%
CCOc1ccc(C(=O)NCC2OCCc3ccccc32)cc1 (stereo not given)
  /	-0.2	3.4	2.5	0.664	/	-8.4%
Cc1cccc(N2C(=O)CC(N(O)c3ccccc3)C2=O)c1 (stereo not given)
  /	0.1	-7.5	1.7	0.706	/	3.5%
C/C=C/CSc1nc2c(c(=O)[nH]c(=O)n2C)n1CCC
  /	/	1.9	2.0	0.748	/	1.9%
CC(C)C(=O)Nc1ccc2c(c1)Cc1cc(NC(=O)C(C)C)ccc1-2
  -1.6	4.6	-3.2	2.1	0.739	i	/
COc1cccc(C(=O)N2CCC2(C)C(=O)NC(C)C)c1 (stereo not given)
  -17.3	/	-1.9	/	/	i	/
N#CCc1ccc(NC(=O)Nc2cccc3ccccc23)cc1
  /	2.1	2.3	1.8	0.7	/	-9.7%
CC(C)(C)C(=O)N(Cc1nc2ccccc2c(=O)[nH]1)Cc1cccs1
  /	4.9	2.8	-0.5	0.68	/	-1.5%
Cc1ccc(O)c(NC2=C(Cl)C(=O)N(Cc3ccccc3)C2=O)c1
  14.2	0.4	-1.2	3.1	0.647	i	/
N#C/C(=C\c1ccc(C#N)cc1)C(=O)N1CCCC1
  /	-3.1	2.1	1.3	0.689	/	11.5%
CCCCOc1ccc(N=Cc2ccc[nH]2)cc1
  -6.5	1.4	-0.2	0.9	0.639	i	/
COC(=O)c1cccc(NC(=O)Nc2ccc(Cl)cc2Cl)c1
  -1.6	1.8	-5.4	1.8	0.714	i	6.2%
O=C(O)C(=O)/C(=C\c1ccccc1)c1ccc2ccccc2n1
  /	30.9*	2.5	-11.3	/	/	-4.9%
CCOC(=O)N1CCN(Cc2c(F)cccc2F)CC1
  /	5.9	1.7	0.3	0.675	/	4.9%
CCOC(=O)[C@@H](NC(=O)CC[C@H]1O[C@@H](n2ccc(=O)[nH]c2=O)[C@H](O)[C@@H]1O)C(C)C
  -0.1	/	-2.1	/	/	i	/
COC(=O)c1ccccc1NS(=O)(=O)c1ccc(O)c(C(=O)O)c1
  -0.5	2.1	6.4	-0.4	0.694	i	?
Cc1ccc(-c2cc(C(F)(F)F)n3nc(C(=O)N4CCN5CCCC5C4)cc3n2)cc1 (stereo not given)
  7.4	-1.1	2.5	-24.8	0.65	i	/
CCN(CC(=O)Nc1c(F)cccc1F)C(=O)CCCSc1nc2ccccc2[nH]1
  1.1	/	0.6	/	/	i	7.8%
CCOC(=O)CSc1nnc(CSc2nc3ccccc3s2)n1C
  -1.7	?	0.3	0.6	0.681	i	1.3%
COc1ccccc1/C=N/Nc1nccnc1Cl
  -32.1	-0.2	0.5	/	/	i	0.6%
O=[N+]([O-])c1cccc(S(=O)(=O)N2CCC(c3nc(-c4ccncc4)no3)CC2)c1
  /	-2.3	1.4	3.0	0.689	/	4.6%
O=C(c1ccc2c(=O)n(C3CCCC3)c(=S)[nH]c2c1)N1CCc2ccccc21
  /	1.4	-1.5	5.6	0.695	/	-5.1%
COc1ccc(C(CNS(=O)(=O)c2ccc(NC(C)=O)c(OC)c2)N2CCCC2)cc1 (stereo not given)
  -2.6	/	6.8	0.0	0.67	i	/
Cc1cc(Br)ccc1NC(=O)c1ccc(-n2cncn2)c([N+](=O)[O-])c1
  -1.4	1.1	-0.3	-2.1	0.643	/	8.0%
CN(C)C(CNC(=O)CCCc1c[nH]c2ccccc12)c1ccco1 (stereo not given)
  /	0.1	2.5	0.0	0.653	/	-1.6%
COc1ccc(CNCc2ccccc2[N+](=O)[O-])cc1OC
  -0.8	0.5	-5.3	3.5	0.664	i	1.2%
Cn1c2ccccc2c2ncn(Cc3ccco3)c(=O)c21
  /	3.1	-3.3	-33.7	0.709	/	2.0%
Cc1ccc(-n2nnc3c(=O)n(Cc4ccccc4C)cnc32)cc1
  -9.8	-3.6	-1.1	2.2	0.743	i	0.6%
O=C(Nc1cccc(C(=O)O)c1)/C(=C\c1ccco1)NC(=O)c1ccccc1
  -1.8	3.0	1.8	6.5	0.695	i	/
COc1ccc(S(=O)(=O)NCc2cc(=O)n(C)c(=O)n2C)cc1C
  0.7	3.9	2.7	0.5	0.721	i	8.0%
CC(=O)NCC12CC3CC(C1)CC(C(=O)O)(C3)C2
  /	0.1	-7.1	-1.0	0.736	/	24.9%
CCc1nn2c(N(C)CCO)cc(C)nc2c1-c1ccc(F)cc1
  -2.5	5.1	-0.8	1.0	0.682	i	-0.1%
O=C(CCNS(=O)(=O)c1ccccc1F)N1CCN(C/C=C/c2ccccc2)CC1
  -7.2	-1.2	-0.4	2.8	0.663	i	-0.8%
COc1ccc(Oc2cccc(Cl)c2CNC(=O)CCCC(=O)O)cc1
  0.9	2.4	-3.0	2.3	0.616	i	-0.2%
CCC(C(=O)OCC(=O)N1CCN(c2ccc(OC)cc2)CC1)c1ccccc1 (stereo not given)
  5.7	/	3.7	6.2	0.677	i	-6.3%
COC(=O)c1cc(S(=O)(=O)NC2CCN(Cc3ccccc3)CC2)cn1C
  /	0.7	-0.3	-1.5	0.781	/	0.0%
CCC(=O)Nc1ccccc1C(=O)NC1CCCCC1
  -39.7	1.1	-1.2	3.9	0.676	i	-3.5%
CC(=O)c1ccc(NC(=O)C2(c3ccccc3)CC2(Cl)Cl)cc1 (stereo not given)
  32.8*	4.4	0.6	1.6	0.661	i	/
Nc1ccc2c(C(F)(F)F)cc(C(F)(F)F)nc2n1
  -1.8	2.1	-6.0	-264.3	0.663	i	-4.5%
O=C(CC1SC(=NCC2CCCO2)NC1=O)Nc1cccc2ccccc12 (stereo not given)
  2.1	-2.0	-0.5	7.3	0.697	i	/
COC(=O)CCN(C(=O)c1ccc(N2CCCC2)c([N+](=O)[O-])c1)c1ccccn1
  2.1	-2.2	-1.6	7.1	0.676	i	7.3%
CN(C)c1nn(C(=O)Nc2cccc(C(F)(F)F)c2)cc1-c1ccccc1
  /	-1.6	0.7	1.4	0.684	/	-3.5%
Clc1ccc(CNc2cnccn2)cc1
  -0.1	1.1	-1.3	-67.7	0.662	/	2.4%
O=C(NN=Cc1ccccc1Cl)c1ccc(-n2cnnn2)cc1
  0.4	/	-1.5	4.1	0.712	i	/
C[C@@H]1CN([C@@H](C)CO)C(=O)c2cccc(NC(=O)Nc3ccccc3)c2O[C@H]1CN(C)C(=O)Nc1cccc2ccccc12
  1.1&3.3	/	4.8	2.5	0.782	i	/
O=S(=O)(c1ccc(C2=CSC3=NCCN23)cc1)N1CCOCC1
  /	-0.9	0.0	2.5	0.794	/	1.3%
COc1ccc(-c2ccc(CN3C(CC(C)C)C(=O)N(Cc4cn(CCC5OCCO5)nn4)CCS3(=O)=O)cc2)cc1OC (stereo not given)
  1.4	/	-0.4	/	/	i	/
Cc1ccc(C(=O)NCCc2cccc(Cl)c2)cc1[N+](=O)[O-]
  0.6	2.4	-1.8	-1.0	0.659	i	6.8%
CN1CCN(C(=O)CCN2C(=O)/C(=C/c3ccccc3Cl)SC2=S)CC1
  1.9	-2.0	1.6	10.4	0.662	i	/

Remaining list, next part.
Order of values – MLL AF4-AF9 inh	RanGTP-Imp inh	HNF4A DNA FP	UCH37 DUB inh	Ecoli growth	FGF22 binding	Vif A3G
COCCNC(=O)c1cc(-c2ccccc2)nn1CC1CC(c2cccnc2)=NO1 (stereo not given)
  /	-0.1	-2.4	13.2	0.684	/	/
CC[n+]1c(-c2ccc(C)cc2)csc1Nc1c(C)n(C)n(-c2ccccc2)c1=O
  4.0	2.6	2.0	4.5	0.659	i	20.9%
O=C(O)c1ccc(-c2noc(-c3cccc(F)c3)n2)cc1
  -3.0	2.6	-1.0	0.0	0.637	i	/
Cn1nc([N+](=O)[O-])nc1Oc1ccccc1N
  /	-3.8	2.2	2.4	0.664	/	1.5%
CN(C)CCn1c(NCc2ccc3c(c2)OCO3)nc2ccccc21
  4.1	0.1	-1.2	1.0	0.68	i	/
Cc1ccc(NC(=O)CN(C)C(=O)c2sc3cc(Cl)ccc3c2Cl)cc1
  -0.1	2.5	0.9	2.0	0.707	i	-10.2%
CCCCCCn1c(CN2CCN(C(=O)c3ccco3)CC2)nc2c1c(=O)n(C)c(=O)n2C
  -5.7	-0.9	6.0	3.0	0.706	i	7.9%
O=C(COC(=O)c1cc([N+](=O)[O-])ccc1N1CCOCC1)NCc1ccccc1
  -2.4	/	3.5	/	/	i	7.2%
CC(=O)Nc1ccc(NC(=O)C2CCCN2C(=O)Nc2ccc(F)cc2)cc1 (stereo not given)
  -0.9	-1.4	4.3	-0.7	0.631	i	-3.4%
O=C1c2cccnc2C(=O)N1Cc1ccc(S(=O)(=O)N2CCOc3ccc(Cl)cc32)cc1
  /	6.9	1.9	4.3	0.688	/	/
CCC1(C)NC(=O)N(CC(=O)N2N=C(c3ccccc3)CC2c2ccc(OC)cc2)C1=O (stereo not given)
  4.0	-4.2	-5.5	0.3	0.697	i	-6.4%
CC(C)OC(=O)c1nnn(-c2nonc2N)c1CSc1ccccn1
  /	4.8	-0.2	7.8	0.714	/	-4.3%
Cc1cccc(CN2CCC(C(=O)Nc3ccc(-n4nc(C)cc4C)cc3)CC2)n1
  0.9	?	1.0	1.5	0.635	i	/
CO/N=C/c1ccc(N2CCN(C(=O)c3ccc(C)cc3)CC2)c([N+](=O)[O-])c1
  /	-1.3	-1.3	/	/	/	1.7%
CCOc1ccc(N2CC(C(=O)NCCN3C(=O)S/C(=C/c4cccnc4)C3=O)CC2=O)cc1 (stereo not given)
  15.7	/	-5.2	6.8	0.707	i	14.6%
